Screening results deposited in PubChem BioAssay by National Center for Advancing Translational Sciences (NCATS).
NS1 function inh: blocks influenza NS1 protein function; AID 2326; S. cerevisiae slowed by influenza A NS1, growth recovery by OD600; hit rate 0.4% among 270,000; Potency, µM (series often up to 46.1 µM), inactives show top-dose activity, positive = more growth; active means well fitted rising curve with a large enough effect; inconclusive means small, poorly fitted or top-dose-only effect; inactive means no such curve, though single readings can be large or run the other way; further: nearly all actives have a fitted effect of over 50% in size
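Recovery from NS1-induced slow growth read by OD600 in budding yeast switched to galactose assay medium (pH 6.0, -URA) at 1:100 dilution. Compound 23 nl per well; the matching strain lacking NS1 serves as control.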
SARS PLpro yeast: SARS-CoV PLP inhibition in yeast | S. cerevisiae expressing SARS-CoV PLpro, growth rescue; control for the full effect not named in the record | Potency, µM (doses to about 32.9 µM), for the others: at the top dose activity, positive = growth rescue | hit rate 0.19% among 330,000 | AID 485353; active means well fitted rising curve with a large enough effect; inconclusive means small, poorly fitted or top-dose-only effect; inactive means no such curve, though single readings can be large or run the other way; further: 0% is about no effect; nearly all actives have a fitted effect of over 55% in size; growth read by luminescence after 48 h
RE007 growth inh: less growth of the S. pombe RE007 Vpr strain; AID 651644; S. pombe RE007 Vpr strain, BacTiter-Glo ATP luminescence, 24 h; control for the full effect not named in the record; Potency, µM (series often up to 92.2 µM), inactives show top-dose activity change, negative = less growth; hit rate 0.21% among 360,000; active = well fitted falling curve with a large enough effect; inconclusive = small, poorly fitted or top-dose-only effect; inactive = no such curve, though single readings can be large or run the other way;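 further: on the % scale 0 is the no-effect control and ±100 the full control effect; nearly all actives have a fitted effect of over 50% in size; the assay follows cell death caused by Vpr and the record does not say whether a fall means rescue or toxicity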
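Fission yeast strain RE007, carrying one chromosomally integrated HIV-1 vpr copy, was seeded at OD 0.01 in PMG+AL medium with 23 nL pinned compound. After 24 h at 30 °C and 99% humidity, viability was read by BacTiter-Glo luminescence.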
Cruzain noTriton: blocks cruzain activity in detergent-free assay; P25779; purified cruzain, Z-FR-AMC fluorescence, no detergent; Potency, µM, without a hit: max response, negative = inhibition, most hits filed as inhibitors; hit rate 2.3% among 200,000; AID 1476;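 further: plate controls were enzyme without inhibitor for no effect and buffer without enzyme for full effect; nearly all actives have a fitted effect of over 40% in size; top concentration of the series not given in the record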
Target sequence (P25779 123-467 limits assumed): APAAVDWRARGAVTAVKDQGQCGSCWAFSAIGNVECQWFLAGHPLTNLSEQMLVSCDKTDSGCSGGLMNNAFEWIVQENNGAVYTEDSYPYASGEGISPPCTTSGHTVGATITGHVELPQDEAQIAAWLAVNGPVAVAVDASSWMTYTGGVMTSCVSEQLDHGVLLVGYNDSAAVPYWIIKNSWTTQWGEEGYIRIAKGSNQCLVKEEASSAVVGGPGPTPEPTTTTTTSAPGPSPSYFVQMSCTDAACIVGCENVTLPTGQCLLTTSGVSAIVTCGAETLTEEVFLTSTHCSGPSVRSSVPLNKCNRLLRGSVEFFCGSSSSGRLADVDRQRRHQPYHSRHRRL
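Detergent-free condition (0.00005% Triton X-100) in acetate buffer pH 5.5 with DTT. 1.5 nM enzyme and compound were pre-mixed 15 min, then 2 uM Z-FR-AMC substrate added; reaction progress from fluorescence change between first and third reads (60 s).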
Lassa entry inh: inhibitors of Lassa virus binding or cell entry | Lassa virus pseudotype entry inhibition, cell reporter; control for the full effect not named in the record | Potency, µM (highest dose often 37.9 µM), without a hit: at the top dose activity change, negative = inhibition, most hits filed as inhibitors | hit rate 1.2% among 300,000; active means well fitted inhibition curve with a large enough effect; inconclusive means small, poorly fitted or top-dose-only effect, or effect the other way; inactive means flat fitted curve, though single readings scatter; tested in HEK293 cells; further: on the % scale 0 is the no-effect control and ±100 the full control effect; nearly all actives have a fitted effect of over 50% in size; luciferase read-out
Cruzain inh Det: inhibitors of Trypanosoma cruzi cruzain with detergent; P25779; purified cruzain, Z-FR-AMC fluorescence, 0.01% Triton; Potency, µM, for the others: max response, negative = inhibition, most hits filed as inhibitors; hit rate 0.43% among 200,000;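 further: plate controls were neutral wells for no effect and buffer without enzyme for full effect; nearly all actives have a fitted effect of over 40% in size; top concentration of the series not given in the record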
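Cruzain (1.5 nM) preincubated 15 min at RT with compound in 100 mM sodium acetate pH 5.5, 5 mM DTT, 0.01% Triton X-100. Reaction started with 2 uM Z-FR-AMC; AMC fluorescence (ex 360/em 450 nm) change over 60 s gave rate.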
2A StopGo: FMDV 2A StopGo reporter, luciferase signal; hit rate 1.2% among 410,000; Potency, µM (highest dose often 57.9 µM), without a hit: top-dose signal change, negative = less light; human cells with a luciferase reporter of 2A StopGo recoding; control for the full effect not named in the record; active = well fitted falling curve with a large enough effect; inconclusive = small, poorly fitted or top-dose-only effect; inactive = no such curve, though single readings can be large or run the other way; tested in HEK293T cells; further: on the % scale 0 is the no-effect control and ±100 the full control effect; nearly all actives have a fitted effect of over 45% in size; luciferase light after 4 h
MARV entry inh: Marburg virus entry inhibition; Marburg virus pseudotyped entry inhibition, cell reporter; control for the full effect not named in the record; about a third of the inactives were read at about 46 µM; hit rate 1.8% among 300,000; Potency, µM (series often up to 37.8 µM), for the others: top-dose activity change, negative = inhibition, most hits filed as inhibitors; active = well fitted inhibition curve with a large enough effect; inconclusive = small, poorly fitted or top-dose-only effect, or effect the other way; inactive = flat fitted curve, though single readings scatter; tested in HEK293 cells; about a fifth of its hits are not listed in these tables; further: on the % scale 0 is the no-effect control and ±100 the full control effect; luciferase read-out
* marks the source's active call; other numbers are inactive results; ? = inconclusive; . = no result given; & = joins results of further samples; [ ] = dose if it differs, or a comment. Unless noted, the call rests on the fitted dose curve; in most records, active means well fitted curve in the direction sought with a large enough effect; inconclusive means small, poorly fitted or top-dose-only effect, or another doubt; inactive means no such curve, though single readings can be large; an effect the other way counts as inactive or inconclusive. Potency means the concentration at half of the fitted maximal effect.

SMILES	NS1 function inh	SARS PLpro yeast	RE007 growth inh	Cruzain noTriton	Lassa entry inh	Cruzain inh Det	2A StopGo	MARV entry inh
NNC(=O)c1ccc(Cl)cc1	-3%	-1%	?	-1%	23%	1.3%	-10%	21%
NNC(=O)Cn1nnc(-c2ccc(C(F)(F)F)cc2)n1	7%	-2%	18%	.	.	.	35%[activator]	.
COC(=O)c1ccc(CSc2nnc(C)n2N)o1	22%	-9%	15%	2%	22%	-0.5%	-10%	?
COc1cccc(N2CC(NS(=O)(=O)c3cccs3)CC2=O)c1 (stereo not given)	.	0%	7%	.	1%	.	16%	-11%[46.1 µM]
COc1ccccc1Nc1c2c(nc3ccccc13)CCC2	5%	0%	-4%	.	?	.	-26%	?
Cc1cccc(OCCn2c(S(=O)(=O)O)nc3ccccc32)c1	6%	1%	3%	-1%	11%	-5.6%	.	-11%
Cc1ccc2c(c1)N(C(=O)Nc1cccc(C)c1C)CCO2	.	.	.	7%	-16%[46.1 µM]	-3.5%	-19%	.
CC1(C)Cc2c(sc3nc(-c4ccccc4)oc(=O)c23)CO1	-6%	3%	5%	-4%	-7%	-3.5%	29%	-1%
O=C(COC(=O)CNC(=O)c1ccccc1F)Nc1ccc2[nH]c(=O)[nH]c2c1	.	1%	-11%	.	-15%	.	-19%	0%
COCCNC(=O)C(=O)N/N=C(\C)CC(=O)Nc1ccc2c(c1)OCO2	.	4%	-8%	.	-4%[46.1 µM]	.	-23%	2%[46.1 µM]
O=C(Nc1ncccc1O)c1ccc(S(=O)(=O)N2CCCCCC2)cc1	.	-4%	4%	.	10%	.	11%	-15%
COc1ccc(C(C(=O)NC2CCCCC2)N(C(=O)c2sc(C)nc2C)c2ccc(C(C)=O)cc2)cc1 (stereo not given)	?	0%	-16%	?	?	1.4%	.	-13%
C=CCn1c(=NC(=O)CN2C(=O)CCC2=O)sc2cc(S(N)(=O)=O)ccc21	-8%	4%	7%	-2%	-5%	-5.2%	-12%	8%
O=c1oc2ccccc2c(O)c1/C=N/c1ccccn1	-8%	-1%	-11%	-6%	-5%	1.8%	-12%	3%
CC(=O)Nc1cccc(-c2nnc(SCC(=O)c3ccc([N+](=O)[O-])cc3)o2)c1	.	.	.	2%	20%[46.1 µM]	3.3%	-24%	18%[46.1 µM]
Cc1c(NC(=O)c2ccc3c(c2)C(=O)N(Cc2ccco2)C3=O)cccc1C(=O)O	.	2%	1%	.	9%[46.1 µM]	.	-2%	?
Cc1cc(C)cc(NC(=O)CCc2c(C)nn(-c3ccc(N4CCOCC4)nn3)c2C)c1	2%	?	-5%	.	-1%[46.1 µM]	.	21%	?
Cc1ccc(OCC(=O)N/N=C2/SCC(=O)N2Cc2ccccc2)cc1	13%	-1%	9%	10%	-20%	-1.0%	-6%	?
COc1ccccc1Cn1c(=S)[nH]c2cc(C(=O)N3CCN(C)CC3)ccc2c1=O	6%	-8%	16%	5%	3%	2.9%	-19%	-26%
O=C(NNC(=O)c1ccco1)Nc1ccccc1	11%	1%	-15%	.	-2%	.	-3%	3%
CCCc1nc2n[nH]c(N)c2c2c1CCCC2	-11%	-1%	0%	-7%	10%	2.0%	0%	0%&0%[46.1 µM]
Cn1c(-c2sccc2OCc2cccc(C(F)(F)F)c2)n[nH]c1=S	.	2%	6%	.	-11%	.	-20%	-15%[46.1 µM]
CCCCC[C@H]1CN(CCc2ccccc2)C(=O)[C@@H]1CC(=O)NCc1ccc(OC)cc1	-88%	0%	0%	.	.	.	-24%	.
Brc1cc2c(cc1Br)OCCOCCOCCO2	3%	1%	-9%	.	10%	.	-1%	-8%
CCC(C)NC(=O)c1ccc2c(c1)S(=O)(=O)c1ccccc1C2=O (stereo not given)	27%	0%	-8%	.	-2%	.	-2%	-14%
Other results follow.
SMILES	NS1 function inh	SARS PLpro yeast	RE007 growth inh	Cruzain noTriton	Lassa entry inh	Cruzain inh Det	2A StopGo	MARV entry inh
O=C(Cc1ccc(-c2ccccc2)cc1)NC1CCCC1	.	0%	1%	.	2%	.	8%	7%[46.1 µM]
Cc1c(Cl)cnc(NC(=O)CSc2nncs2)c1Cl	-2%	-4%	-7%	-1%	12%	-3.3%	-11%	?
CCc1ccc(NC(=O)N(C2CCCCC2)C(C)c2cccnc2)cc1 (stereo not given)	-7%	3%	-16%	-6%	4%	-1.5%	-5%	?
CCOP(=O)(CN(CC)C(=O)c1ccccc1Br)OCC	1%	0%	2%	.	-4%	.	2%	12%
CC(C)Cn1cnc2c(c1=O)c1nc3ccccc3nc1n2Cc1ccc2c(c1)OCO2	0%	13%	.	-25%	.	3.5%	.	.
CC1=CC(=O)C=C(C)C1=NOC(=O)c1cccc([N+](=O)[O-])c1	3%	3%	47%	-16%	-21%	-3.3%	-6%	3%
N#Cc1ccc(OCC(=O)NC2=NCCS2)cc1	.	-4%	1%	.	-17%	.	20%	?
O=C1CC(N2CCN(C(c3ccccc3)c3ccccc3)CC2)C(=O)N1Cc1ccc(N2CCCC2=O)cc1 (stereo not given)	-18%	3%	-22%[3.69 µM]	?	8%	-4.6%	-12%	7%
CC(=O)Nc1cccc(C(=O)OC(C(=O)c2ccc(C)cc2)c2ccccc2)c1 (stereo not given)	-89%	-29%	11%	?	?	-4.3%	-23%	-27%
Cc1ccccc1OCc1ccc(C(=O)N2CC(C)OC(C)C2)o1 (stereo not given)	-8%	-2%	6%	.	?	.	4%	?
O=C(NCCN1CCN(c2ccccc2)CC1)C1CCN(S(=O)(=O)N2CCOCC2)CC1	4%	4%	10%	0%	5%	6.7%	-8%	-1%
Cc1ccc(CN(C)C(=O)C2CCCN2C(=O)c2cccs2)o1 (stereo not given)	-2%	2%	0%	13%	1%	0.8%	4%	9%
CC(C)N(Cc1nc(-c2ccc(Cl)cc2)no1)C(=O)C(c1ccccc1)c1ccccc1	12%	-15%	-2%	7%	-2%	-0.1%	-16%	?
O=C(Nc1nc(-c2cc(Cl)sc2Cl)cs1)c1cccs1	-46%	-22%	-21%	?	?	-4.6%	-13%	?
CCOc1ccc(NC(=O)Cc2ccc(NC(=O)N3CCCCc4ccccc43)cc2)cc1	.	.	.	2%	8%[46.1 µM]	-2.9%	4%	.
CCCCCCC(=O)Nc1cc2nc3c(nc2cc1C)c(=O)n(C)c(=O)n3C	.	.	.	8%	2%[46.1 µM]	-1.8%	-14%	1%[46.1 µM]
CC(=NCc1ccc2c(c1)OCO2)c1c(O)n(Cc2ccccc2)c(=O)[nH]c1=O	-14%	1%	-3%	.	?	.	-10%	-32%
Cc1oc(/C=N/NC(=O)CN(c2ccccc2Br)S(C)(=O)=O)cc1Br	-1%	-1%	-8%	-19%	-1%	-4.6%	-10%	3%
Cc1cc(C)c(NC(=O)Cn2ccn(-c3cccc(Cl)c3)c(=O)c2=O)c(C)c1	.	.	.	-15%	-3%[46.1 µM]	-7.6%	-14%	.
CCN(CC)CCCOC(=O)c1ccc(OC)cc1O	0%	0%	-11%	.	-2%	.	-2%	0%[46.1 µM]
CCOc1cc(/C=C/C(=O)O)ccc1OCCOc1ccccc1	1%	-1%	0%	.	?	.	-10%	?
CC(C)(C)OC(=O)N1CCC(c2nnc(SCc3ccccc3)o2)CC1	.	.	.	8%	?	-4.6%	-16%	14%[46.1 µM]
CCOc1ccccc1CNC(=O)c1ccc2nc(N3CCOCC3)sc2c1	-13%	2%	1%	.	.	.	-28%	.
O=[N+]([O-])c1ccccc1/C=N/NC1=NCCN1	.	.	-6%	.	27%	.	-2%	-2%
CCc1c(C)[nH]n(-c2ccc(Oc3ccccc3)c(S(=O)(=O)O)c2)c1=O	?	2%	10%	?	?	-3.7%	6%	-20%
The listing continues.
SMILES	NS1 function inh	SARS PLpro yeast	RE007 growth inh	Cruzain noTriton	Lassa entry inh	Cruzain inh Det	2A StopGo	MARV entry inh
Cc1c(NC(=O)C(C)OC(=O)[C@@H](NC(=O)c2ccccc2)C(C)C)c(=O)n(-c2ccccc2)n1C (stereo not given in full)	7%	1%	8%	-1%	8%	4.9%	-1%	2%
C/C(=C\C(=O)c1ccccc1)Nc1cccc(O)c1	-11%	-2%	-14%	-4%	11%	-12%	.	?
COc1ccccc1/C=C/C=C1\Oc2c(ccc(O)c2CN(C)C)C1=O	18%	-2%	-5%	.	.	.	-18%	.
CC1=C(C(=O)Nc2ccc(Cl)cc2)C(c2ccncc2)C(C#N)=C(SCC(N)=O)N1 (stereo not given)	5%	6%	-23%	-2%	14%	-6.9%	-15%	-22%
COCCN1CCn2c(nc3cc(NC(C)=O)ccc32)C1	9%	0%	-14%	.	.	.	10%	.
COc1ccc(CCNC(=O)CSc2nnc(CNC(=O)c3cc(OC)c(OC)c(OC)c3)o2)cc1OC	-10%	0%	5%	.	21%[46.1 µM]	.	-4%	-16%[46.1 µM]
COc1cc(C(=O)NCC(=O)N/N=C/c2cccs2)cc(OC)c1OC	0%	-21%	-13%	4%	.	-4.2%	12%	.
N#Cc1cn(N2CCCCC2)c(=O)[nH]c1=O	2%	-4%	6%	.	-1%[46.1 µM]	.	-7%	10%[46.1 µM]
CC(=O)Nc1ccc(NC(=O)CN(C)CCC#N)cc1	0%	6%	-2%	1%	8%	5.1%	5%	-19%
CCc1ccccc1NC(=O)Nc1ccsc1C(=O)OC	-24%	-13%	4%	.	.	.	3%	.
O=C(c1cnsn1)N1CCN(c2ccccn2)CC1	1%	-2%	2%	-2%	-10%	1.9%	-5%	23%
CCC(C)NCC(O)(c1ccc(Cl)cc1)c1ccc(Cl)cc1 (stereo not given)	.	-2%	-8%	.	-29%	.	0%	?
CC1(C)CC2(CC(c3cccs3)c3cc(Cl)c(O)cc3O2)NC(=S)N1 (stereo not given)	-2%	1%	32%	0%	-20%	-6.6%	-12%	?
Cc1cc(C)cc(NC(=O)c2cccnc2)c1	-22%	-8%	1%	.	-3%	.	10%	2%

Quoted from the listing:
Under Cruzain inh Det, CC1=CC(=O)C=C(C)C1=NOC(=O)c1cccc([N+](=O)[O-])c1 has the entry -3.3%
Under Cruzain inh Det, CC(C)N(Cc1nc(-c2ccc(Cl)cc2)no1)C(=O)C(c1ccccc1)c1ccccc1 has the entry -0.1%
